High-throughput results from PubChem.
KCNQ2 enhance – potentiators of rat KCNQ2 potassium channel; 0.54% of 310,000 active; AID 2239, 2010; CHO-K1 KCNQ2, FluxOR thallium flux fluorescence; active compounds read high; B-score at 10 µM;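 active = fluorescence ratio B-score at least 3 SD of library B-scores, with initial fluorescence B-score within 3 SD, cut at about 5.3 in these data; same plate scores as AID 2156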;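 also: B-score of peak minus minimum over baseline fluorescence ratio after K+ and Tl+ stimulus; positive B-score means potentiation of KCNQ2 with more thallium influx and brighter signal; only the inactives scoring about 0 or higher are listed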
Target sequence (O88943 whole entry, looked up): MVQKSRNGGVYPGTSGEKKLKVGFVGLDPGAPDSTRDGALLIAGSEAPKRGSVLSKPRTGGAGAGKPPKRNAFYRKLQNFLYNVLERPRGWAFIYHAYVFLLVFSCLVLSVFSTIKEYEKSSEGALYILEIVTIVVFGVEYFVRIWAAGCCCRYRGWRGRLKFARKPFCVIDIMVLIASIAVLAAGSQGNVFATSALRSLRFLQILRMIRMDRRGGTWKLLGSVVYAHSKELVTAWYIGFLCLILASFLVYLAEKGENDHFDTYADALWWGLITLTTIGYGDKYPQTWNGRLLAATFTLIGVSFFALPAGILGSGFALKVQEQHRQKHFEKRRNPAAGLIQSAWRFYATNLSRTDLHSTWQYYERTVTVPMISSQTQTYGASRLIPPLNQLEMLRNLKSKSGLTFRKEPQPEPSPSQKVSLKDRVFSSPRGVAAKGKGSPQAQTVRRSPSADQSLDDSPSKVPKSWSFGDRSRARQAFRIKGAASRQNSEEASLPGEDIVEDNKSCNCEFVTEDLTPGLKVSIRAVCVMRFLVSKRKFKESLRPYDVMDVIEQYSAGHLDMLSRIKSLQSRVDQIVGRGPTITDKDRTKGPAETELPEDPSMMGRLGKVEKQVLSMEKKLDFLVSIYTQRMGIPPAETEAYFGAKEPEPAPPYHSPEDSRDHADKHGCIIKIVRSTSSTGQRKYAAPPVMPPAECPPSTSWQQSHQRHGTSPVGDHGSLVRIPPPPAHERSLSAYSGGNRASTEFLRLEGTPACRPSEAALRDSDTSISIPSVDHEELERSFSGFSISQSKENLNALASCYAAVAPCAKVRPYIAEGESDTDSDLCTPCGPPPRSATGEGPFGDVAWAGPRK
KCNQ2 enhance baseline – second read-out of KCNQ2 enhance, no call of its own (marks repeat the call); B-score; compound at 10 µM; measured here: initial fluorescence intensity artifact check;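 brightness before thallium and not channel activity; 0 = typical well and far values either way flag optical interference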
* marks the source's active call; other numbers are inactive results.

KCNQ2 enhance baseline	KCNQ2 enhance	compound
0.42	0.86	CCOC(=O)c1nnn(-c2nonc2N)c1-c1cccs1
0.05	0.67	CC1CC(C)CN(S(=O)(=O)c2ccc(NN)nc2)C1 (configuration not stated)
-0.54	0.82	CCCn1nnnc1NCc1cccn1C
0.83	0.23	CC(C)Cc1nnc(NC(=O)CCN2C(=O)c3ccccc3C2=O)s1
1.2	0.06	CC(c1nccs1)N(C)C(=O)c1cn(Cc2cccc3ccccc23)nn1 (configuration not stated)
0.2	0.05	O=C1N/C(=N\c2ccccn2)SC1Cc1ccc(Cl)cc1 (configuration not stated)
0.9	0.8	O=C(C1CCN(S(=O)(=O)c2ccc(Br)s2)CC1)N1CCN(C2CCCCC2)CC1
-0.44	0.52	O=C1CC(c2ccccc2)C(=O)N1c1cccc(O)c1 (configuration not stated)
7.2	3.2	O=C(CN1CCOCC1)NCc1ccc(F)cc1
0.47	0.63	CCC(C)(C(=O)NC1CCCCC1)N(C(=O)c1cnccn1)c1c(C)n(C)n(-c2ccccc2)c1=O (configuration not stated)
0.7	1.8	COc1cccc(C(=O)N2CCN(C(=O)C3CC3)CC2)c1
-0.24	0.55	O=C(CSc1ccc(-c2ccccc2)nn1)NCC1CCCO1 (configuration not stated)
0.33	0.47	CN1C(C)(C)c2ccccc2OS1(=O)=O
-2.8	2.1	COC(=O)C(CSCc1ccccc1)NC(=O)CSc1nc(N)cc(=O)[nH]1 (configuration not stated)
-2.9	1.6	O=C(CSc1ccc(-c2ccc(F)cc2)nn1)N1CCCCC1
-1.6	0.4	Cc1cc(NC(=O)Cn2nc(C(F)(F)F)c3c2CCCC3)no1
-1.1	0.5	Cc1ccccc1NC(=O)C(=O)NCCCN1CCOCC1
0.14	0.06	O=C(CCNS(=O)(=O)c1cccs1)NCc1ccco1
0.03	0.49	Cc1cc2ccccc2c(=O)n1CC(=O)NCC(=O)N1CCN(c2ccccc2F)CC1
-1.9	2.1	O=C(O)C(O)(c1ccccc1)C(O)c1ccccc1 (configuration not stated)
0.24	1.3	O=C(CCN1C(=O)c2ccccc2S1(=O)=O)N1CCN(c2cccc(Cl)c2)CC1
1.8	0.73	NC(=O)CC(NC(=O)Cc1cccc2ccccc12)c1ccc(N2CCN(c3ccc(F)cc3)CC2)c([N+](=O)[O-])c1 (configuration not stated)
-0.18	0.62	CC1=C(C(=O)OCc2ccccc2)C(c2ccccc2)NC(=O)N1 (configuration not stated)
0.44	0.11	COCc1nnc(NC(=O)CS(=O)(=O)c2ccc(C)cc2)s1

4 structures already listed, ordered by count of non-hydrogen atoms, rising.
KCNQ2 enhance baseline	KCNQ2 enhance	compound
0.33	0.47	CN1C(C)(C)c2ccccc2OS1(=O)=O
-1.1	0.5	Cc1ccccc1NC(=O)C(=O)NCCCN1CCOCC1
-1.6	0.4	Cc1cc(NC(=O)Cn2nc(C(F)(F)F)c3c2CCCC3)no1
1.8	0.73	NC(=O)CC(NC(=O)Cc1cccc2ccccc12)c1ccc(N2CCN(c3ccc(F)cc3)CC2)c([N+](=O)[O-])c1 (configuration not stated)

Other structures follow.
KCNQ2 enhance baseline	KCNQ2 enhance	compound
0.03	1.1	COC(=O)c1ccccc1NC(=O)CSc1nnc(-c2ccc(C)cc2)o1
0.15	0.4	Nn1c(SCC(=O)Nc2ccccc2F)nnc1-c1cccs1
1.3	0.38	CCOC(=O)Cc1cn2c(=O)cc(CSCC(=O)Nc3ccc(C)c(C)c3)nc2s1
-1.4	1.4	Cc1c(-c2cc(C(=O)O)no2)cnn1C
-0.92	0.27	CC(=O)c1ccc(N2CCN(C(=O)c3cc(C)on3)CC2)cc1
0.11	0.03	Cc1ccc(-c2nc(=O)[nH]c3ccc(Br)cc23)cc1
2.3	0.41	Cc1ccc(NS(=O)(=O)c2cccc(C(=O)O)c2)c(C)c1
-1.3	0.06	CC(C)(C)NC(=O)CN(Cc1ccc2c(c1)OCO2)C(=O)CCC(=O)Nc1nccs1
0.53	0.3	COc1ccc(-c2nn(-c3ccccc3)cc2/C=C2/SC(=S)N(CCC(=O)O)C2=O)cc1
1.5	0.08	Cc1cccc(C)c1NC(=O)c1sc(Cl)nc1C
0.78	0.06	O=C(NCc1ccncc1)c1ccc(Cn2cc(C(F)(F)F)ccc2=O)cc1
0.91	1.4	Cc1nnc2c(NCCC(C)C)nc3ccccc3n12
-0.53	0.06	COc1ccc2[nH]c(-c3cccc(F)c3)cc(=O)c2c1
0.73	1.7	CS(=O)(=O)N1CCC(C(=O)Nc2ccc(Cl)c(C(F)(F)F)c2)CC1
2.1	0.21	O=C(NC1CCSC1)c1cccc(Cl)c1 (configuration not stated)
-0.05	0.52	CC(C)CNC(=O)c1cccc(NC(=O)COc2cccc([N+](=O)[O-])c2)c1
-3.2	0.11	O=C(c1cccs1)C1C(c2ccc(Br)cc2)NC(=S)NC1(O)C(F)(F)F (configuration not stated)
-0.18	0.62	CCCN(CCC)CCCNC(=O)Cn1cnc2sc(C)c(S(=O)(=O)N3CCC(C)CC3)c2c1=O
-0.09	0.8	c1ccc(CSc2nnc3ccc(-c4ccncc4)nn23)cc1
0.29	0.05	CCOC(=O)C1(CCOC)CCN(C(C)CCc2ccc(OC)cc2)CC1 (configuration not stated)
-1.5	0.79	COc1cccc2c(SCC(=O)N/N=C/c3ccc(O)c(O)c3)cc(C)nc12
0.84	0.61	CN(CC(=O)Nc1ccccc1Cl)C(=O)Cn1cc(C(F)(F)F)cc(Cl)c1=O
-1.2	1.1	Cc1ccc(CS(=O)(=O)c2cn(CC(=O)Nc3ccon3)c3ccccc23)cc1
0.89	1.2	COc1ccccc1NC(=O)Nc1ccc(F)c(F)c1
0	0.44	CN(C)CCN(C(=O)C1=COCCO1)c1nc2ccc(Cl)cc2s1
-0.3	1.5	Cc1cccc(NS(=O)(=O)c2cccc(C(=O)N3CCCC3)c2)c1
-3.4	1.4	Cc1cc(C)cc(N(CC(=O)Nc2cc(C)ccc2C)S(=O)(=O)c2c(C)[nH]c(=O)[nH]c2=O)c1
-0.25	0.49	Cc1ccc(-n2ccnc(SCC(=O)NC3CCCCC3)c2=O)cc1F
-0.41	0.03	CC(C)=CC(=O)Nc1nnc(-c2ccccc2C)s1
0.54	0.97	COCC(=O)NC1CCN(C(=O)NCc2ccccc2)CC1
-0.85	0.41	O=C(Nc1ccccc1C(=O)O)c1cccc(NC(=O)c2ccccc2Br)c1
-2.3*	11*	O=C(CN1CCCCC1)NNc1nc(-c2ccccc2)c2cc(Cl)ccc2n1
-0.15	0.37	CCCc1ncc(C(O)c2ccc(OC)cc2)n1C (configuration not stated)
-2.4	0.28	Cc1ccc(OCC(=O)Nc2cc(C(=O)O)cc(C(=O)O)c2)cc1C
0.13	0.6	C=C(C)c1cccc(C(C)(C)NC(=O)Nc2ccc(OC)cc2)c1
-1.7	3.5	COc1cc(C(=O)NS(=O)(=O)c2ccccc2C)ccc1Cc1cn(C)c2ccc(NC(=O)OC3CCCC3)cc12
-2.1	1.1	COc1ccccc1C(=O)NC(CCSC)C(=O)NNC(=O)c1ccccc1C (configuration not stated)
-0.32	1.6	O=C(NCCc1ccccc1)C1CCN(S(=O)(=O)c2cccnc2)CC1
-3.1	1	COc1cc2c(cc1OC)CN(CC(=O)Nc1ccc(F)cc1)CC2
-0.36	1	CCNc1nc(Cl)nc(-c2cn(-c3ccccc3)c3ccccc23)n1
-0.63	0.54	O=C(CCCCN1CCCCC1)c1ccccc1
-1.9	1	COc1ccc(C)cc1N(CC(=O)NCCSCc1cccc(Cl)c1)S(C)(=O)=O
1.7	2.4	CC1CCN(CC(O)COC2CC(C)CCC2C(C)C)CC1 (configuration not stated)
-0.43	1.9	O=C1OC(/C(=C\NCc2ccccc2)[N+](=O)[O-])c2ccccc21 (configuration not stated)
0.47	0.83	Cc1cc(C)nc(N/N=C/c2c[nH]c3ccccc23)n1
0.74	0.97	CC(=O)N1CCC(N(CCN2CCOCC2)C(=S)Nc2c(C)cccc2C)CC1
0.15	1.9	COC(=O)CS(=O)(=O)c1ccc(C)cc1
-0.82	0.41	O=[N+]([O-])c1ccccc1S(=O)(=O)NC1CCCCCCC1

Fetched one by one from above (4):
KCNQ2 enhance baseline	KCNQ2 enhance	compound
-0.36	1	CCNc1nc(Cl)nc(-c2cn(-c3ccccc3)c3ccccc23)n1
0.15	1.9	COC(=O)CS(=O)(=O)c1ccc(C)cc1
-0.82	0.41	O=[N+]([O-])c1ccccc1S(=O)(=O)NC1CCCCCCC1
-3.1	1	COc1cc2c(cc1OC)CN(CC(=O)Nc1ccc(F)cc1)CC2

Continuation.
KCNQ2 enhance baseline	KCNQ2 enhance	compound
0.01	0.62	CC(C)COc1ccc(C(=O)N/C(=C/c2cccc([N+](=O)[O-])c2)C(=O)O)cc1
-2.2	0.29	O=C(CNC(=O)c1ccccc1)OC1CCCCC1
-1.3	0.8	Cc1nc(NC(=O)CCl)sc1C(=O)N(C)C
-0.33	0.01	NC1=NN(c2cccc(C(=O)O)c2)C(=O)C1
0.49	1	COc1ccc2c(c1OC)CN(C)CCc1cc3c(cc1C(O)C2)OCO3 (configuration not stated)
-0.38	0.03	Cc1ccccc1CSc1nnc([C@@H]2CCCN2)o1
2.1	0.99	Cc1nonc1NC(=O)CSc1nc(C23CC4CC(CC(C4)C2)C3)nc2ccccc12
0.73	1.2	COC(=O)c1cc(OC)c(OC)cc1NC(=O)C1CCCO1 (configuration not stated)
0.5	0.51	O=C(Nc1cccc(F)c1)C1CCN(C(=O)c2ccc(Br)cc2)CC1
1.1	0.64	COc1ccc2nc(NCCCO)[nH]c2c1
-1.4	2.3	O=C(CN1CCCCCCC1)N/N=C/c1ccc([N+](=O)[O-])o1
-0.08	0.35	CS(=O)(=O)c1ccccc1C(=O)Nc1cccc(-c2nc3ccccc3o2)c1

Single records (already shown). Screens in order: KCNQ2 enhance baseline | KCNQ2 enhance
O=C(Nc1cccc(F)c1)C1CCN(C(=O)c2ccc(Br)cc2)CC1 is entered as 0.5 | 0.51
COC(=O)c1cc(OC)c(OC)cc1NC(=O)C1CCCO1 (configuration not stated) is entered as 0.73 | 1.2

Next entries.
KCNQ2 enhance baseline	KCNQ2 enhance	compound
-0.83	0.65	C=CCNC(=S)Nc1c(C(=O)OC)[nH]c2cc(OC)ccc12
-3.6	1.7	COc1ccc(-c2cc3c(=O)n(CC(=O)NCCCN4CCC(N5CCCCC5)CC4)ncn3n2)cc1
1.3	0.06	CCCNC(=O)C1(CC2CC(c3ccccc3)=NO2)CCN(C(=O)c2cc(OCC)c(OCC)c(OCC)c2)CC1 (configuration not stated)
0.16	0.21	CN(C)c1ncccc1-c1nc2ccccc2s1
-0.62	0.98	COc1ccc(/C=N/OCC(=O)Nc2nc3ccccc3s2)cc1OC
-1.3	0.16	CCc1c(C)sc(NC(=O)C2CCCCC2C(=O)O)c1C(N)=O (configuration not stated)
0.68	0.01	c1ccc2c(c1)OCC(c1nn3cnnc3s1)O2 (configuration not stated)
0.22	0.02	O=C(Nc1ccc(S(=O)(=O)N2CCOCC2)cc1)c1ccc(Cl)s1
0.54	0.61	COc1ccc(NC(=O)/C(C#N)=C/c2ccc(OCCN3CCOCC3)c(OC)c2)c(OC)c1
0.01	1.7	O=S(=O)(NCCNS(=O)(=O)c1ccc(F)cc1)c1ccc(F)cc1
1.6	0.25	COC(=O)CC(NC(=O)C1CC1)c1ccc2c(c1)OCO2 (configuration not stated)
0.42	0.33	O=C(O)CCn1ncc2ccccc2c1=O
0.54	0.15	CC(C)C1S/C(=N/N=C/c2ccco2)NC1=O (configuration not stated)
-0.97	0.12	CCC1Sc2ccc(S(=O)(=O)CCC(=O)Nc3c(Cl)cc(OC)cc3OC)cc2NC1=O (configuration not stated)
-0.5	0.18	CCC(=O)Nc1nc2ccc3nc(C)sc3c2s1
0.49	0.32	O=C(Cc1ccccc1)N/N=C/c1ccc(OC(=O)/C=C\c2ccco2)cc1
0.87	1.1	CCOC(=O)C1CCCN(C(=O)c2ccccc2NC(=O)C2=C(C)OCCS2)C1 (configuration not stated)
1	2.2	c1ccc(C(c2nnnn2Cc2cccs2)N2CCN(C3CCCC3)CC2)cc1 (configuration not stated)
-0.27	0.24	COC(CNc1nc(SC)nc2sc3c(c12)CCN(C)C3)OC
2.4	1.5	Cc1ccc(C(=O)N/N=C\c2ccc[nH]2)cn1
0.02	0.95	COc1nc(N(C)C)nc(N2CC(=O)N(CCNS(=O)(=O)c3ccc(C)cc3)C2=N)n1
0.24	0.06	Cc1nnc(SCC(=O)Nc2ccccc2NC(=O)CSc2nnc(C)s2)s1
-0.15	0.53	COc1cccc(CC2(CO)CCCN(CC3=Cc4cc(OC)ccc4OC3)C2)c1 (configuration not stated)
-0.12	0.03	Cc1cccc(NC(=O)CCN2CCCC(C)C2)c1 (configuration not stated)
0.02	0.13	Cc1ccc(C(=O)C(OC(=O)c2cnccn2)c2ccccc2)cc1 (configuration not stated)
-0.08	0.86	O=C1NC(=O)C2(CCCCCCCCCCC2)N1
-0.77	1.3	C=CCNC(=O)C1CC(=O)N(c2ccc(OCC(=O)Nc3cccc(OC)c3)cc2)C1 (configuration not stated)
0.25	0.39	CCOC(=O)c1sc(=S)n(-c2cc(OC)ccc2OC)c1N
0.78	0.25	COc1cc(/C=N/NC(N)=S)ccc1OCC(=O)N1CCOCC1
0.02	1.9	COc1ccc(OCC(=O)Nc2c3c(nn2C(C)(C)C)CSC3)cc1
-0.15	0.33	C[C@H]1CCC[C@]2(O[C@H](CCO)C[C@H](O)[C@H]2O)O1
0.84	4.3	Cc1ccc(S(=O)(=O)/N=C/c2cc(Br)ccc2O)cc1
-0.2	1.5	CN(C)CC1CCCCC1C1(O)c2ccccc2CSc2sccc21 (configuration not stated)

This is a subset, so the mix of outcomes need not match the whole.
